# Screening data (PubChem BioAssay)
# GLA inh pH 4.5: inhibitors of human alpha-galactosidase A at pH 4.5; purified enzyme, 4-MU-alpha-Gal fluorescence, pH 4.5; 230,000 tested, under 10 active; P06280; AID 1467; activity change, negative = inhibition, % at 105 µM; inconclusive = small, poorly fitted or top-dose-only inhibition, or a rising curve; inactive = flat fitted curve, though single readings scatter; no compound was filed as active;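 further: 0% = full activity with enzyme and -100% = basal without enzyme; dose as in the result columns while the protocol names 77 µM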
# Rango-impB inh: prevents formation of the Rango-importin beta complex; Q14974; Rango CFP/YFP FRET sensor + importin beta, 45 min; Potency, µM (highest dose often 92.2 µM), for inactives: top-dose inhibition of complex formation; 0.031% of 340,000 active; active = rising FRET ratio curve, often small or poorly fitted; inconclusive = mostly compound fluorescence or quenching in the first reads; inactive = flat curves in all reads;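 further: potency means the concentration at half of the fitted maximal effect; 0% = DMSO wells and 100% = buffer wells lacking importin beta; nearly all actives have a fitted effect of over 15% in size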
# Target sequence (Q14974 whole entry, looked up): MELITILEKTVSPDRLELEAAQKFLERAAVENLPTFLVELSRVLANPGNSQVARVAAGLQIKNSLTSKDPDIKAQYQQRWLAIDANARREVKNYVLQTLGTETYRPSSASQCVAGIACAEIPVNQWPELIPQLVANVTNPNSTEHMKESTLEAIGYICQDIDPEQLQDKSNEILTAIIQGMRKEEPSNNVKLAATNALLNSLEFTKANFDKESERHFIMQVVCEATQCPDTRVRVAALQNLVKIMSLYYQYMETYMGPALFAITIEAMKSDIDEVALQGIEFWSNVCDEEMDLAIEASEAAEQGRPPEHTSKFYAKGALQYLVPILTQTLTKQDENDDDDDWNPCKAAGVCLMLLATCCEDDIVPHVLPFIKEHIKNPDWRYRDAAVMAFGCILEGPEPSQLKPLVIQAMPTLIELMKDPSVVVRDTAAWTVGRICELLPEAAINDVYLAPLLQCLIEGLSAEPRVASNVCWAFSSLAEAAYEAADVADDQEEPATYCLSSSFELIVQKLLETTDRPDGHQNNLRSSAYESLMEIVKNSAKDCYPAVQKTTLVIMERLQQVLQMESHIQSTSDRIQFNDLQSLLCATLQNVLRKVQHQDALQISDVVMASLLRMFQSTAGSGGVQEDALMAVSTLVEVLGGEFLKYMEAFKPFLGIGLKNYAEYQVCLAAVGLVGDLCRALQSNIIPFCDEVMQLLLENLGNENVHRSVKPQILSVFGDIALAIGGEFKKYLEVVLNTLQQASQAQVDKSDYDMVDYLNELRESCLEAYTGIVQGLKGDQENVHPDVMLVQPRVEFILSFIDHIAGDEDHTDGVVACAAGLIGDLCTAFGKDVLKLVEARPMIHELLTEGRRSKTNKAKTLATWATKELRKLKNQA
#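 FRET biosensor Rango (snurportin 1 IBB between N-terminal EYFP and C-terminal Cerulean), 50 nM in PBS/1 mM DTT/0.02% Tween-20/0.1% BSA, preincubated 5 min RT with compound; 0.125 microM importin beta added, 45 min RT, CFP/YFP FRET ratio read.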
# Rango dissoc inh: inhibition of RanGTP-driven Rango-importin beta dissociation; Biochemical FRET Rango-importin beta, RanGTP-induced dissociation; Potency, µM (series often up to 46.1 µM), for inactives: top-dose activity change, negative = inhibition; 0.071% of 340,000 active; active means falling FRET ratio curve, often poorly fitted, with flat reads before Ran was added; inconclusive means other falling curves, or compound fluorescence or quenching; inactive means flat or rising ratio curve;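 further: potency means the concentration at half of the fitted maximal effect; % of control where 0% means no effect; nearly all actives have a fitted effect of over 45% in size; -100% = wells without RanGTP and RCC1; the record marks most hits as doubtful in a second field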
#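 Quantitative HTS using a FRET biosensor: 0.1 uM Rango, 0.25 uM importin beta, 0.6 uM Ran, 2 mM GTP, 0.2 uM RCC1 final, PBS with DTT, Tween-20 and BSA. Post-read taken 45 min after Ran addition.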
# miR-21 FLuc: miR-21 reporter, rising signal; HeLa miR-21 FLuc reporter, luciferase, 48 h; Potency, µM (highest dose often 38.3 µM), for the others: top-dose reporter change, positive = more light; 340,000 tested, under 10 active; active = well fitted rising curve with a large enough effect; inconclusive = small, poorly fitted or top-dose-only effect; inactive = no such curve, though single readings can be large or run the other way;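 further: % of control where 0% means no effect; miR-21 action dims this reporter so a rising signal means less miR-21 action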
#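 HeLa cells endogenously expressing miR-21, stably carrying CMV-driven firefly luciferase with a downstream miR-21 binding site, 2000 cells/well. Titrations up to approximately 40 uM, 48 hours; luciferase luminescence read.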
# * = called active by the depositor; ? = inconclusive; . = not tested or not shown. Only part of the results is shown; the hit share may differ from the screen's.
SMILES,GLA inh pH 4.5,Rango-impB inh,Rango dissoc inh,miR-21 FLuc
O=C(Nc1ncc2c(n1)-c1ccccc1OC2)c1ccc(Cl)cc1Cl,7,3.9%,0%,0%
CCc1cc2c(cc(C(=O)O)n2C)s1,2,-2.5%,0%,-3%
CC(C)n1c(SCC(=O)Nc2ccc3c(c2)OCO3)nc2c1c(=O)n(C)c(=O)n2C,0,0.6%,20%,-1%
COC(C(=O)Nc1ccc(S(=O)(=O)Nc2ccc(C)c(C)c2)cc1)c1ccccc1 (stereo not given),-3,-3.5%,4%,11%
CC1CCN(C(=O)CN(c2cccc(F)c2)S(C)(=O)=O)CC1,8,4.3%,-15%,-1%
NC(=O)C1(N2CCCCC2)CCN(Cc2ccc(Br)cc2)CC1,-1,-0.7%,-1%,7%
Cc1nc2ccc(NS(=O)(=O)c3c(F)cc(F)cc3Br)cc2s1,.,3.7%,-6%,.
O=C(NC(=S)NC1CCSC1=O)c1cccs1 (stereo not given),1,0.7%,-5%,-6%
C=CCn1c(CC(=O)Nc2ccc(C)cc2C)nnc1SCC(=O)N1CCOCC1,.,2.5%,2%,6%
CCCc1nc(SCC(=O)c2ccc(OC)cc2)c2c(=O)n(C)c(=O)n(C)c2n1,7,.,.,-1%
COc1ccc(C(=O)NCC(=O)n2nc(C)cc2C)cc1OC,-2,3.2%,-1%,-1%
Cc1ccc(Cn2c(C(C)Nc3nc(-c4ccc(Cl)c([N+](=O)[O-])c4)cs3)nc3cc(C(F)(F)F)ccc32)cc1 (stereo not given),.,2.8%,9%,.
COCCNC(=O)Cn1cc(/C=N/NC(=O)c2ccc(Oc3ccc(O)cc3)cc2)c2ccccc21,-6,1.7%,-16%,-4%
C[C@H](CO)N1C[C@H](C)[C@@H](CN(C)Cc2ccncc2)Oc2c(NC(=O)CCCCCC(=O)Nc3ccccc3N)cccc2C1=O,.,?,-11%,.
CCCc1ncc(C(=O)c2ccc(OC)cc2)n1C,0,0.4%,10%,-32%
Cc1ccc(CNC(=O)c2cc3c(=O)n(C)c4ccccc4c3n2C)o1,2,-1.9%,10%,-9%
CSc1ccccc1OCc1cc(C(=O)N(C)Cc2ccncn2)no1,.,0.2%,23%,-68%
O=c1cc(CS(=O)(=O)c2ccccc2)nc(-c2ccncc2)[nH]1,8,0.2%,14%,10%
CC1CCCCC1NC(=O)CSc1nnc(-c2ccco2)n1C (stereo not given),.,1.7%,-3%,.
CCOC(=O)CN(C(=O)COC(=O)C1=NNC(=O)CC1)c1ccc(F)cc1,.,-1.1%,-2%,.

# Five compounds from above, sorted by the number in Rango-impB inh, rising.
structure	GLA inh pH 4.5	Rango-impB inh	Rango dissoc inh	miR-21 FLuc
NC(=O)C1(N2CCCCC2)CCN(Cc2ccc(Br)cc2)CC1	-1	-0.7%	-1%	7%
CSc1ccccc1OCc1cc(C(=O)N(C)Cc2ccncn2)no1	.	0.2%	23%	-68%
COCCNC(=O)Cn1cc(/C=N/NC(=O)c2ccc(Oc3ccc(O)cc3)cc2)c2ccccc21	-6	1.7%	-16%	-4%
Cc1nc2ccc(NS(=O)(=O)c3c(F)cc(F)cc3Br)cc2s1	.	3.7%	-6%	.
CC1CCN(C(=O)CN(c2cccc(F)c2)S(C)(=O)=O)CC1	8	4.3%	-15%	-1%

# Additional records.
SMILES,GLA inh pH 4.5,Rango-impB inh,Rango dissoc inh,miR-21 FLuc
NC1=NC2=C(CCCC2)C2(CCCCC2)S1,10,-3.6%,-6%,21%
CCn1c(SCC(=O)Nc2ccc3c(c2)OCCO3)nnc1-c1cccnc1,.,1.2%,-16%,-2%
Cc1ccc(C)c(/C=C2\N=C(c3ccccc3F)OC2=O)c1,.,-0.2%,0%,-3%
CCN(CC)CCCNC(=O)CSc1nc(-c2cccs2)cc(C(F)(F)F)n1,-7,0.8%,3%,-2%
COC(=O)/C=C1/S/C(=N/N=C/c2ccco2)NC1=O,-3,3.7%,?,-5%
COc1ccc(CCCc2nnc(SCc3nc4ccccc4c(=O)[nH]3)n2C)c(C)c1,3,0.3%,3%,-3%
Cc1n[nH]c(C)c1N1C(=O)c2cccc3cc(Br)cc(c23)C1=O,2,0.4%,3%,-11%
CCOC(=O)c1nc(C)sc1-c1ccnn1S(=O)(=O)c1cccc(Cl)c1,-6,0.6%,-1%,-6%
CC(C)c1cccc(C(C)C)c1NC(=O)COC(=O)C1CCC1,.,3.0%,-3%,.
CNC(=O)CSc1nnnn1CCCOC,-1,2.3%,0%,-3%
COc1ccccc1CNC(=O)c1cccc(C)c1[N+](=O)[O-],-11,-1.4%,9%,-9%
COc1ccc(Br)cc1CN(C)C(C)C(=O)Nc1cccc(C(C)=O)c1 (stereo not given),-7,?,0%,11%
CCOc1cc(N2CCOCC2)c(OCC)cc1NC(=O)CN1C(=O)NC2(CCCCC2C)C1=O (stereo not given),.,-4.5%,-5%,.
CCCc1nc2c(c(=O)c3ccccc3n2C)c(=O)n1-c1cc(C)cc(C)c1,0,-0.7%,-10%,-13%
O=C1C=C(O)c2c(O)cc(O)c(O)c2C1=O,.,?,-6%,.
COc1ccccc1CCNC(=O)C1CCC(=O)N(Cc2ccccc2OC)C1 (stereo not given),.,1.5%,1%,-14%
COc1ccc(C(=O)CSc2nnc(-c3ccco3)n2CC2CCCO2)cc1 (stereo not given),-1,5.4%,0%,-6%
O=C(NC1CCCC1)C1CCCN1C(=O)Oc1ccccc1 (stereo not given),-1,4.6%,6%,1%
CCn1c2ccc(F)cc2c2nnc(NN)nc21,5,-2.9%,8%,-19%
COc1ccc(C(=O)NC(=S)NC(C)C)cc1Br,3,1.4%,-12%,-29%
COC(=O)/C=C/c1c(C)nc(NCc2ccccc2)nc1Cl,.,0.4%,-15%,-6%
COc1ccc(/C=C/C(=O)OCC(=O)c2ccc3c(c2)NC(=O)CO3)c(OC)c1,-7,-4.6%,-9%,6%
Cn1c(CC(=O)Nc2ccccc2)nnc1SCC(=O)NC1CCCC1,.,0.2%,-13%,0%
CN(Cc1ccccc1)C(=O)COC(=O)c1ccc2c(c1)OCO2,3,2.5%,14%,-13%
COc1cc(C(=O)N/C(=C/c2ccc(F)cc2)C(=O)NC(C(=O)O)c2ccccc2)cc(OC)c1OC (stereo not given),.,0.5%,0%,-3%
CCN1CCN(CC(=O)Nc2ccc(C)c(Br)c2)CC1,.,-0.4%,12%,-11%
O=C(Nc1ccc(C(=O)N2CCN(c3ccccc3)CC2)cc1)C1=CSCCO1,.,0.3%,10%,-3%
CN1C(=O)CSc2ccc(C(=O)O)cc21,-12,2.8%,-14%,-1%
COc1ccc(OC)c(-n2c(SCC(=O)N3CCc4ccccc43)nc3c(c2=O)SCC3)c1,1,-0.6%,2%,-2%
CN1CCN(C(c2ccc(C(F)(F)F)cc2)c2ccc3cccnc3c2O)CC1 (stereo not given),.,-1.3%,-7%,21%
OC(c1ccccn1)(c1ccccn1)c1ccccn1,-1,3.6%,-4%,20%
COCC(C)NC(=O)Cn1c(SCc2ccccc2)nc2ccccc21 (stereo not given),.,1.3%,-3%,4%
CC(=O)Nc1cc(C(=O)N2CCCC2)ccc1Sc1ccc(Cl)cc1,3,0.4%,-4%,27%
O=C(CN1C(=O)COc2ccccc21)N(Cc1cccnc1)Cc1cccc(F)c1,-7,1.4%,-4%,3%
Cc1cccc(-n2nnc3c(=O)n(CC(=O)Nc4cc(C)on4)cnc32)c1,5,-1.5%,0%,3%
Cc1ccc2c(c1)-c1ccccc1S(=O)(=O)N2,-18,-0.6%,1%,-2%
O=C(Nc1ccc(S(=O)(=O)N2CCCC2)cc1)c1ccccc1,.,-1.6%,26%,.
NC(=O)c1ccccc1OCC(=O)N1CCCC1c1ccc2c(c1)OCCCO2 (stereo not given),.,0.7%,-14%,.
CC(=O)NCc1ccc(S(=O)(=O)NC(C)CCc2ccccc2)cc1 (stereo not given),.,-1.0%,-25%,-3%
Cc1ccc(C)c(N2CCN(C(=O)c3cc4ccccc4oc3=O)CC2)c1,0,-0.2%,0%,-5%
CCOC(=O)c1c(C)[nH]c(C(=O)COC(=O)CCSc2ccccc2)c1C,-4,4.2%,-9%,-65%
O=C(Nc1ccc(-n2nncc2-c2ccco2)cc1)c1cc2ccccc2oc1=O,0,?,-9%,-17%
COC(=O)N(C)c1nc2ccccc2s1,10,-0.7%,1%,-31%
CC1CCN(S(=O)(=O)N2CCC(C(=O)NCCC3=CCCCC3)CC2)CC1,4,-0.5%,15%,-3%
O=C(Nc1cccnc1)C1CCN(S(=O)(=O)c2ccc(Cl)cc2)CC1,.,0.2%,-23%,-4%
O=C(COc1ncnc2cc([N+](=O)[O-])ccc12)NCCc1ccc(Cl)cc1,0,-0.1%,-4%,-5%
COc1ccc(CC(=O)Nc2ccc(S(=O)(=O)NCC3CCCO3)cc2)cc1 (stereo not given),-6,-2.2%,17%,9%
Fc1ccc(Nc2ccnc(C(F)(F)F)c2)cc1,.,?,13%,-10%
COc1cccc(SCc2noc(C(=O)NC(C)C)c2C(=O)NC(C)C)c1,.,-1.0%,?,.
COc1ccc(Oc2nc(-c3cccnc3)nc3ccccc23)cc1,-4,-1.0%,7%,3%
Nc1ccc(C(=O)NCc2ccccc2)cc1,-1,-2.7%,-1%,0%
Cc1ccc(C(=O)O)cc1NC(=O)c1cccs1,5,0.0%,2%,6%
O=c1nc2n(c3cc(Cl)c(S(=O)(=O)N4CCOCC4)cc13)CCCCC2,4,-4.3%,6%,1%
Cc1cccc(OCC(=O)NCCNC(=O)c2ccco2)c1,.,-1.2%,-5%,-3%
CC1CCN(C(=O)CSc2nnc(Cc3cc(=O)[nH]c(=O)[nH]3)n2-c2ccc(Cl)cc2)CC1,?,0.5%,-4%,-7%
CN1/C(=C\C=O)C(C)(C)c2ccccc21,-1,-2.3%,-8%,-7%
O=C(CN1C(=O)NC2(CCOc3ccccc32)C1=O)c1ccc(Cl)cc1 (stereo not given),.,1.9%,-10%,.
CC(C)C(=O)Nc1ccc(C(=O)NC2CCSC2=O)cc1 (stereo not given),5,2.9%,5%,-11%
Cc1cccc(C)c1NC(=O)CN(C)C(=O)CC1Sc2ccccc2NC1=O (stereo not given),.,-5.4%,-9%,.
COc1ccc(C(=O)NCCCOc2cccc(NC(C)=O)c2)cc1,-10,3.5%,2%,-16%

# (list continues)
SMILES,GLA inh pH 4.5,Rango-impB inh,Rango dissoc inh,miR-21 FLuc
S=C(N/N=C/c1ccc(Cl)cc1)N1CCOCC1,-3,-1.3%,8%,-75%
C=CCn1c(SCC(=O)NC2CCCCC2)nc2ccccc2c1=O,1,1.7%,3%,-4%
CC(C)(C)n1cnc2cc(NS(=O)(=O)c3ccccc3)ccc21,-14,-1.2%,1%,-16%
CCn1cc(C(=O)N[C@H](C(=O)NC(C)(C)CO)C(C)C)c(=O)c2cc3c(cc21)OCO3,.,-0.7%,0%,-3%
C=C(C)C1CC=C(C)/C(=N/NC(=O)COc2ccc(Cl)cc2)C1 (stereo not given),11,-1.6%,-7%,-1%
Cc1c(C)c(C)c2[nH]c(=S)[nH]c2c1C,2,4.5%,1%,0%
CCc1ccc(NC(=O)c2ccc(NC3=NC4CS(=O)(=O)CC4S3)cc2)cc1 (stereo not given),.,3.7%,-8%,-17%
O=C(NNC(=O)c1cccc([N+](=O)[O-])c1)c1ccncc1,5,0.1%,1%,-1%
COC(=O)c1c(NC(=O)CN2CCC3(O)CCCCC3C2c2cc(OC)ccc2OC)sc(C)c1C (stereo not given),-12,-2.5%,-13%,?
O=C(CN1C(=O)c2ccccc2S1(=O)=O)Nc1ccccc1C(=O)NCc1ccco1,-4,0.5%,0%,-1%
CCCOc1ccc(/C=C/c2c([N+](=O)[O-])c(=O)n(C)c(=O)n2C)cc1,.,-0.8%,-9%,1%
Cn1cc(CC(=O)N2CCN(c3ccc(Cl)cc3)CC2)c2ccccc21,-1,0.2%,-5%,-6%
CCOC(=O)C1CCN(S(=O)(=O)c2c(C)[nH]c(C)c2C(=O)N2CCCC2)CC1,.,-1.4%,-1%,-3%
CC(CCc1ccccc1)NC(=O)COC(=O)c1cccn1C (stereo not given),.,0.3%,0%,.
CCn1c(=O)n(CC)c2cc(S(N)(=O)=O)c(C)cc21,0,4.0%,0%,-6%
